VDR inh = Inhibitors of the vitamin D receptor (VDR): qHTS. Vitamin D3 receptor (Homo sapiens), P11473. 400,000 tested, 0.93% active. VDR-SRC2-3 peptide fluorescence polarization, 2 h. Potency, µM, for inactives: max response, negative = inhibition, usual class: inhibitors; active = well fitted inhibition curve with a large enough effect; inconclusive = small, poorly fitted or top-dose-only effect, or another doubt; inactive = no such curve, though single readings can be large or run the other way; also: series mostly up to about 120 µM
Target sequence (P11473 whole entry, looked up): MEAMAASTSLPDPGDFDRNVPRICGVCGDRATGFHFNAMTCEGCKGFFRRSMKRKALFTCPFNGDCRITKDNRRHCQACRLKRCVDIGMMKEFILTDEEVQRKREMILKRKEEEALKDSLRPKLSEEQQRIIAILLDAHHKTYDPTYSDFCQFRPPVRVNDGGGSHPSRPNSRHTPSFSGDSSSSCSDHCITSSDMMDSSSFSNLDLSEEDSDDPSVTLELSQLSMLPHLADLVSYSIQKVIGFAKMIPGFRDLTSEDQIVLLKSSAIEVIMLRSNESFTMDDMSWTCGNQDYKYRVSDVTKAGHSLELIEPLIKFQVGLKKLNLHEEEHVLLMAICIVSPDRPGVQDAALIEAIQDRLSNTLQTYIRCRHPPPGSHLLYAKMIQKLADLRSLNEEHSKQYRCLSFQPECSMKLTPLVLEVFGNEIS
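Signal is fluorescence polarization, reporting how far test compounds block the interaction of VDR with the SRC2-3 coregulator peptide after a 2 h room-temperature incubation.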
The depositor's hits bear a star; u = inconclusive; & = joins results of further samples. % is scaled to controls: 0 for no effect and ±100 for the full control effect; potency is read from the fitted curve at half-maximal effect.

entry | smiles | VDR inh
1 | COc1cc(-c2noc(C3CCCN(C(=O)c4ccccc4)C3)n2)cc(OC)c1OC (centres undefined) | 17%
2 | N#Cc1ccc(OCC(=O)N2CCN(c3ccc(C(F)(F)F)cn3)CC2)cc1 | u
3 | Cn1c(C(=O)N2CCC(C(=O)NCCc3ccc(S(N)(=O)=O)cc3)CC2)cc2sccc21 | 11%
4 | Nc1ccc(C(=O)OC2CCOC2=O)cc1[N+](=O)[O-] (centres undefined) | -8%
5 | COC(=O)c1cc(NC(=O)CC2C(=O)OCCN2Cc2ccccc2)cc(C(=O)OC)c1 (centres undefined) | 13%
6 | Nc1n[nH]c(-c2cccc([N+](=O)[O-])c2)n1 | -36%
7 | Cc1ccc(NC2CCCN(C(=O)c3cccc4nccnc34)C2)cc1C (centres undefined) | -22%
8 | Cc1cccc(Oc2cc(NC(=O)Cn3cnc([N+](=O)[O-])n3)cc([N+](=O)[O-])c2)c1 | -12%
9 | CCOc1ccc(N(CC(=O)Nc2ccccc2OC)S(=O)(=O)c2ccccc2)cc1 | -3%
10 | COc1ccc(CC(=O)N2CCN(c3cccc(C)c3C)CC2)cc1 | -12%
11 | COc1ccccc1CNC(=O)COC(=O)C1CCN(S(=O)(=O)c2ccccc2)CC1 | 3%
12 | CCc1ccc(-n2nnnc2SCC(=O)Nc2ccc(NC(C)=O)cc2)cc1 | -21%
13 | CCN(CC)CCNC(=O)c1ccc(NC(=O)Cc2cccc3ccccc23)cc1 | -1%
14 | COc1cc(C(=O)NNC(=O)c2cc(=O)[nH]c3ccccc23)cc(OC)c1OC | 11%
15 | COc1ccccc1N1CCN(C2CCCN(C(=O)c3ccoc3)C2)CC1 (centres undefined) | 5%
16 | CC1CCC(NC(=O)c2ccc(CS(=O)(=O)Cc3ccccc3F)o2)CC1 (centres undefined) | 6%
17 | CC(Sc1nnc2ccccn12)C(=O)NCc1ccc2c(c1)OCO2 (centres undefined) | -10%
18 | O=C(CCN1C(=O)c2ccncc2C1=O)NCc1ccc(Cl)cc1 | -2%
19 | Cc1ccc(C(=O)NC(=S)Nc2ccc(N3CCOCC3)cc2)c(C)c1 | -1%
20 | CC(CN(C)C)CN1c2ccccc2CCc2ccccc21 (centres undefined) | -2%&11%&-5%

Following part.
entry | smiles | VDR inh
21 | COc1c(O)c2c(=O)cc(OC)c3c4c(OC)cc(=O)c5c(O)c(OC)c6c(c(c1C[C@@](C)(O)[C@H]6C(C)=O)c23)c54 | u
22 | Cc1nc2sc(C(c3cccs3)N3CC(C)CC(C)C3)c(O)n2n1 (centres undefined) | -9%
23 | CCCS(=O)(=O)N1CCN(C(=O)c2ccco2)CC1 | 9%
24 | CC(=O)NS(=O)(=O)c1ccc(NC(=S)NC(=O)C(C)(C)C)cc1 | 10%
25 | CSc1ccccc1NC(=O)COC(=O)CCc1ccccc1 | 0%
26 | COc1ccc(CC(=O)Nc2cc(S(C)(=O)=O)ccc2Cl)cc1S(=O)(=O)N1CCOCC1 | -8%
27 | O=S(=O)(Cc1ccccc1)NCC1CCCN(Cc2cccc3nonc23)C1 (centres undefined) | -5%
28 | CC1CCCCN1CCNC(=O)CN1C(=O)CSc2ccc(S(=O)(=O)N3CCCCC3)cc21 (centres undefined) | -24%
29 | CCn1cc(C(=O)Nc2cccc(NC(C)=O)c2)c2cc(OC)c(OC)cc2c1=O | 1%
30 | O=C(O)/C=C\C(=O)Nc1ccc(OC(F)F)cc1 | -4%
31 | CN(C)c1ncc2nc(CCc3ccccc3)c(=O)n(-c3ccccc3)c2n1 | u
32 | C/C=C/c1ccc(Oc2nnnn2-c2ccc(C(N)=O)cc2)c(OC)c1 | -24%
33 | O=C(CSc1nc(-c2ccccc2)cs1)NC(=O)NCc1ccco1 | -7%
34 | CC(=O)C1=C(O)C(=O)N(CCC(=O)O)C1c1ccc(Cl)cc1Cl (centres undefined) | 10%
35 | O=C(Cn1c(CO)nc2ccccc21)NCCc1ccc(F)cc1 | 3%
36 | CCCNc1nc2ccccc2n2c(C)nnc12 | -3%
37 | O=c1c2ccccc2cnn1-c1nc2ccccc2[nH]1 | 13%
38 | Cc1cc(NC(=O)C2CCCN2C(=O)Nc2c(C)cccc2C)ccc1-n1cnnn1 (centres undefined) | 15%
39 | COc1ccc(C(=O)N2CCC3(CCN(Cc4ccncc4)CC3)CC2)cc1 | -2%
40 | Cc1cc(NC(=O)CSCc2ccccc2C)no1 | 24%

Next compounds.
entry | smiles | VDR inh
41 | Cc1c(NC(=O)c2ccccc2NS(=O)(=O)c2ccc(Br)cc2)c(=O)n(-c2ccccc2)n1C | -4%
42 | Cc1ccccc1-c1nc(CN2CCC(C(=O)NCCC3=CCCCC3)CC2)c(C)o1 | 3%
43 | CCOc1ccccc1C(=O)N1CC(=O)Nc2ccc(C)cc2C1c1ccccc1 (centres undefined) | -11%
44 | COc1ccc(NC(=O)CN2C(=O)N(C)Cc3ccccc32)c(C)c1 | -6%
45 | O=C1C[C@@H](c2ccc3ccccc3c2)N1S(=O)(=O)c1ccccc1[N+](=O)[O-] | u
46 | CCOC(=O)c1cc2c(C)n(-c3ccc(C)cc3)c(C)c2ccc1=O | 7%
47 | OC(CN1CCN(c2ccccn2)CC1)Cn1c2ccccc2c2ccccc21 (centres undefined) | -1%
48 | Cc1noc(C)c1NC(=O)N(C)C[C@H]1Oc2c(NC(=O)Nc3ccccc3)cccc2C(=O)N([C@H](C)CO)C[C@@H]1C | -18%
49 | CCCC1CCC(=C(C#N)C(N)=O)CC1 (centres undefined) | -4%
50 | Cc1ccc(NCc2cccnc2)c(Br)c1 | -5%
51 | CCOc1ccccc1C1C(C#N)=C(N)Oc2n[nH]c(CC)c21 (centres undefined) | -3%
52 | CCC(=O)c1ccc(O)c(CC=C(C)C)c1 | -3%
53 | CC(=O)Oc1ccc(/C=C(\NC(=O)c2ccco2)C(=O)NCc2ccco2)cc1 | 12%
54 | CC(=O)c1ccc(N2CCN(c3ccccc3O)CC2)c([N+](=O)[O-])c1 | -3%
55 | CCn1cc(C(C)NC(=O)Nc2ccc3c(c2)OCO3)c(C)n1 (centres undefined) | -13%
56 | CN1CCN(C(=O)c2ccc3c(c2)N(Cc2ccc(Cl)cc2)C(=O)c2ccccc2S3=O)CC1 (centres undefined) | 3%
57 | Cc1cccc(N2CCN(C(=O)CSCc3ccc(F)cc3)CC2)c1C | -3%
58 | O=C(COC(=O)c1ccco1)NCCc1ccc(Cl)cc1 | -37%
59 | CCOC(=O)C1(CCOC)CCN(Cc2nc(-c3cccs3)oc2C)CC1 | -4%
60 | COc1cc2c(cc1OC)C(c1cccc(Br)c1)CC(=O)N2 (centres undefined) | -9%

Following part:
entry | smiles | VDR inh
61 | COc1ccccc1-c1nc2ccccc2nc1-c1ccccc1OC | 13%
62 | O=C(c1ccc(C#CC2(O)CCCCC2)cc1)N1CCN(Cc2ccccc2)CC1 | 5%
63 | CC(=O)c1ccc(N2CCN(C(=O)Nc3ccc(C(C)C)cc3)CC2)cc1 | -13%&1%
64 | O=C(CSc1nc2ccccc2s1)NCc1ccc2c(c1)OCO2 | -8%
65 | Cc1ccsc1C=Nc1ccc(O)cc1 | u
66 | COc1cccc(Nc2ncc(C#N)c(N)n2)c1 | 3%
67 | COc1ccc(NC(=S)NC(=O)c2ccc(Br)o2)cc1 | -14%
68 | O=C(c1ccoc1)N1CCC2(CC1)Oc1ccc(F)cc1C(=O)C21CC(c2ccc(Cl)cc2)=NO1 (centres undefined) | u
69 | COc1ccc(C2=NN(C(=O)c3ccccc3)C(c3ccccc3)C2)c(O)c1 (centres undefined) | 12%
70 | O=C(O)CC/C(=N/NC(=O)CNC(=O)Cc1ccc(Cl)cc1)c1ccccc1 | 5%
71 | CN(CCC#N)C(=O)c1cc2c(Cl)nc3ccccc3c2s1 | -12%
72 | Cn1c2ccccc2c2cc(C(=O)NNS(=O)(=O)c3ccc(F)cc3)sc21 | 10%
73 | CCC(C)[C@H](N)c1cn([C@@H](Cc2ccc(O)cc2)C(=O)N2CCNCC2)nn1 (some centres undefined) | -9%
74 | Cc1ccc2c(=O)cc(C(=O)Nc3c(C(=O)c4ccccc4)oc4ccccc34)oc2c1C | 17%
75 | O=C(N/N=C1\CC(c2ccccc2)Oc2ccccc21)c1ccc(O)cc1 (centres undefined) | 11%
76 | COc1cc(CC(=O)OCC(=O)c2c[nH]c3ccccc23)cc(OC)c1OC | -8%
77 | CCc1sc(C(=O)Nc2ccc3c(c2)OCO3)cc1C | 5%
78 | COc1ccc(OC)c(NC(=O)CSc2nnc(-c3ccco3)o2)c1 | -20%
79 | COCC(=O)OCC(=O)Nc1cc([N+](=O)[O-])ccc1Cl | -3%
80 | COc1ccc([C@H]2CC(=O)C=C(c3ccc(OC)c(OC)c3)C2)cc1 | 16%

(further entries)
entry | smiles | VDR inh
81 | CN(C)S(=O)(=O)c1ccc(N2CCCC2)c(C(=O)N2CCN(S(=O)(=O)c3ccc(F)cc3)CC2)c1 | 4%
82 | Cc1nnc(NC2=NCCC2)s1 | 14%
83 | COc1cc(CN2CCCC(C(=O)c3ccc4c5c(cccc35)CC4)C2)cc(OC)c1O (centres undefined) | -10%
84 | CCN(CC)CCCC(C)n1c2nc(=O)[nH]c(=O)c-2nc2cc(Cl)ccc21 (centres undefined) | -13%
85 | CCOC(=O)C1CCN(S(=O)(=O)c2ccc(OC)c(C(=O)N3CCCCCC3)c2)CC1 | -22%
86 | CC(=O)Nc1ccc(S(=O)(=O)NC(C)c2ccncc2)cc1 (centres undefined) | -18%
87 | N/C(=N\OC(=O)CCCc1ccccc1)c1cccnc1 | -4%
88 | CC(C)CN(C(=O)CSc1nnc(C2CC2)n1-c1ccccc1)C1CCS(=O)(=O)C1 (centres undefined) | 0%
89 | Cc1noc(C)c1S(=O)(=O)N(CC(=O)N1CCn2c1nc1ccccc12)c1ccc(C(C)C)cc1 | -2%
90 | Cc1ccc2c(c1)N(CC(=O)N1CCCCCC1)C(=O)C(C)O2 (centres undefined) | -9%
91 | O=C(NN=C1CCN(Cc2ccccc2)CC1)c1cccc(S(=O)(=O)Nc2ccccc2Cl)c1 | -16%
92 | COCC1CCCN(C(=O)c2cc(COc3ccc(C(C)=O)cc3)on2)C1 (centres undefined) | -13%
93 | O=C1C=C(Nc2cccc(O)c2)CC(c2ccco2)C1 (centres undefined) | 3%
94 | COC(=O)c1cc2c(n(-c3ccccc3)c1=O)CCCC2=O | -24%
95 | CN1CCN(C(=O)c2cccc(S(=O)(=O)N3CCCC3)c2)CC1 | 1%
96 | O=C(CSc1nnc(Cc2ccccc2)o1)Nc1ccccc1 | -16%
97 | O=C(c1cnccn1)N1CCC2(CC1)CN(c1ccccn1)C2 | 8%
98 | COc1ccc(C(=O)NNc2cc(C)nc(NNC(=O)c3ccc(OC)cc3)n2)cc1 | 15%
99 | O=C(CCc1nnc(CCCc2ccccc2)o1)NCCCC1CCCC1 | 12%
100 | CCn1c(=S)sc2c(=O)n(CC(=O)Nc3cccc(Br)c3)c(C)nc21 | -20%

Continued:
entry | smiles | VDR inh
101 | COc1ccc(/C(C)=N/NC(=O)CN(c2ccc(OC)cc2)S(=O)(=O)c2ccccc2)cc1 | -13%
102 | Nc1c(C(=O)N2CCCCC2)sc2nc3c(cc12)CCCC3 | -11%
103 | CCc1ccccc1N1C[C@@]23C=C[C@@H](O2)C(C(=O)OCC(C)C)[C@H]3C1=O (some centres undefined) | 17%
104 | Cc1cccc(CCNC(=O)CN(C)S(=O)(=O)c2cnc[nH]2)c1 | 0%
105 | CCC(CC)C(=O)N1CCN(c2ccccc2)CC1 | -2%
106 | COc1ccc(-n2nc(C)c3c(=O)c4c([nH]c32)CCCC4)cc1 | 18%
107 | COc1ccc(C2CC(c3ccc(C)o3)=NN2C(C)=O)cc1 (centres undefined) | -3%
108 | COc1ccc(-c2nn(CC(=O)Nc3ccc(Cl)c(Cl)c3)c(=O)c3ccccc23)cc1 | 2%
109 | Cc1cccc(C)c1N1C(=O)CN(Cc2ccccc2)C1=S | 4%
110 | CCOc1ccccc1C1NC(=O)c2ccccc2N1 (centres undefined) | -8%
111 | CC1CC(CC(=O)NC(=S)Nc2ccccc2Cl)C(=O)O1 (centres undefined) | -7%
112 | O=C(NCc1ccccc1Cl)c1cnc(N2CCCCC2)c2ccccc12 | 3%
113 | Cc1ccc(NC(=O)CSc2nnc(Cc3csc(C)n3)o2)cc1 | -6%
114 | Cc1cc(C)cc(NC(=S)NCCN(C2CCCCC2)C2CCCC2)c1 | -3%
115 | CCCn1cnc2sc(CC)cc2c1=O | -5%

Part of the list above, with the structure last:
| # | VDR inh | compound |
| --- | --- | --- |
| 25 | 0% | CSc1ccccc1NC(=O)COC(=O)CCc1ccccc1 |
| 26 | -8% | COc1ccc(CC(=O)Nc2cc(S(C)(=O)=O)ccc2Cl)cc1S(=O)(=O)N1CCOCC1 |
| 27 | -5% | O=S(=O)(Cc1ccccc1)NCC1CCCN(Cc2cccc3nonc23)C1 (centres undefined) |
| 28 | -24% | CC1CCCCN1CCNC(=O)CN1C(=O)CSc2ccc(S(=O)(=O)N3CCCCC3)cc21 (centres undefined) |
| 29 | 1% | CCn1cc(C(=O)Nc2cccc(NC(C)=O)c2)c2cc(OC)c(OC)cc2c1=O |
| 30 | -4% | O=C(O)/C=C\C(=O)Nc1ccc(OC(F)F)cc1 |
| 31 | u | CN(C)c1ncc2nc(CCc3ccccc3)c(=O)n(-c3ccccc3)c2n1 |
| 32 | -24% | C/C=C/c1ccc(Oc2nnnn2-c2ccc(C(N)=O)cc2)c(OC)c1 |
| 33 | -7% | O=C(CSc1nc(-c2ccccc2)cs1)NC(=O)NCc1ccco1 |
| 34 | 10% | CC(=O)C1=C(O)C(=O)N(CCC(=O)O)C1c1ccc(Cl)cc1Cl (centres undefined) |
| 35 | 3% | O=C(Cn1c(CO)nc2ccccc21)NCCc1ccc(F)cc1 |
| 36 | -3% | CCCNc1nc2ccccc2n2c(C)nnc12 |
| 37 | 13% | O=c1c2ccccc2cnn1-c1nc2ccccc2[nH]1 |
| 38 | 15% | Cc1cc(NC(=O)C2CCCN2C(=O)Nc2c(C)cccc2C)ccc1-n1cnnn1 (centres undefined) |
| 39 | -2% | COc1ccc(C(=O)N2CCC3(CCN(Cc4ccncc4)CC3)CC2)cc1 |
| 40 | 24% | Cc1cc(NC(=O)CSCc2ccccc2C)no1 |

Bioassay records (PubChem)

The list is partial (hit frequency here may not be typical).
